High-throughput results from PubChem.
HIV TAR-Tat – HIV-1 TAR-Tat binding disruption; 0.6% of 100,000 active; AID 1259389; z-score (test concentration not listed); HIV-1 TAR RNA, Tat peptide displacement FRET; stronger effect = higher value;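 note: score is relative to mean and SD of negative controls; some compounds called inactive have numbers as strong as hits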
CDC25B-CDK2 inh – human CDC25B-CDK2/CyclinA binding inhibition; P30305+P24941; HTRF CDC25B-CDK2/CyclinA binding, anti-His/anti-Flag; stronger effect = higher value; z-score (no concentration beside the values); 0.72% of 94,000 active; AID 1259370;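 note: score is relative to mean and SD of negative controls; strong numbers were not always called active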
* hit, by the source's call; . = not tested or not shown.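 Rule for the calls: active = z-score from 3 up in half or more of its runs; inactive = the rest.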

SMILES	HIV TAR-Tat	CDC25B-CDK2 inh
O=S1(=O)C[C@H](NCc2ccc(Cl)cc2)[C@@H](S(=O)(=O)c2cccs2)C1	1	-0.66
COc1ccc(C(O)c2nc3ccccc3n2C(C)C)cc1OC (configuration not stated)	.	0
Cc1ccc(CNc2nnc(-n3nc(C)cc3C)c3ccccc23)cc1	1.1	.
O=C(Nc1c(C(c2cccc(F)c2)N2CCOCC2)oc2ccccc12)c1ccccc1 (configuration not stated)	0.52	-0.79
COc1ccc(-c2cnnn2-c2ccc(N)cc2)cc1OC	0.9	-1.5
NC(=O)c1ccc2[nH]c3c(c2c1)CCCC3	0.85	-1.6
CCOc1ccccc1NS(=O)(=O)c1ccc2[nH]c3c(c2c1)CCCCC3	0.79	.
Cc1ccccc1CSc1ncc(CO)n1Cc1ccc(Cl)cc1	0.74	.
CCc1nn(CC(=O)NC2CCCC2)c(=O)c2cc3sccc3n12	2.4	-1.1
CCS(=O)(=O)c1ccc(-c2cccc(NS(=O)(=O)c3ccc(C)cc3)c2)nn1	-0.01	.
O=[N+]([O-])c1ccc(/C=C/c2nccc3ccsc23)cc1	.	-3.9
COc1ccc(OC)c(C2C3=C(CC(C)(C)CC3=O)Nc3nnnn32)c1 (configuration not stated)	.	-1.8
COc1ccc(C(NC(=O)COc2ccccc2)c2cc(Cl)c3cccnc3c2O)cc1 (configuration not stated)	.	-2.4
COc1ccc(-c2nc3n(n2)C(c2cccnc2)C2=C(CC(C)(C)CC2=O)N3)cc1 (configuration not stated)	-0.57	-0.08
O=C(NC1CCN(C(=O)c2c(Cl)cccc2Cl)CC1)C1CCCCC1	.	-2.6
Cc1cccc(CSc2nc3c(c(=O)[nH]2)C(c2ccccc2OC(C)C)CC(=O)N3)c1 (configuration not stated)	1.4	-0.35
CC(C)(CC(=O)NCCc1cccs1)CC1=NS(=O)(=O)c2ccccc2N1	1.5	.
Cc1c(NC(=O)C(C)(C)C)c(-n2cnnc2)nn1C	-0.85	-2.2
Cc1cnc(NC(=O)CCC(=O)O)c(C)n1	.	0.51
CC(C)OCCCNC(=O)C1c2c(n(C)c3ccccc23)SCC(=O)N1C1CCCC1 (configuration not stated)	-1.5	.
Cc1nn(-c2ccccc2)nc1CNS(=O)(=O)c1cn(C)c(C)n1	.	-1.4
CC(C)Cc1nn2c(=O)cc(COC(=O)COc3ccccc3F)nc2s1	1.1	.
Cc1cccc(-c2nnc(SCC(=O)c3ccc(Cl)cc3)n2C)c1	1.7	-2.7
CCCOC(=O)C1=C(C)Nc2ccc(C)cc2S1	2.4	-0.65
CC(=O)N1c2ccccc2CC1C(=O)N1CCC(C)CC1 (configuration not stated)	1.1	.

Fetched by compound from the list above:
SMILES	HIV TAR-Tat	CDC25B-CDK2 inh
Cc1nn(-c2ccccc2)nc1CNS(=O)(=O)c1cn(C)c(C)n1	.	-1.4
CCCOC(=O)C1=C(C)Nc2ccc(C)cc2S1	2.4	-0.65
Cc1cccc(CSc2nc3c(c(=O)[nH]2)C(c2ccccc2OC(C)C)CC(=O)N3)c1 (configuration not stated)	1.4	-0.35
Cc1cnc(NC(=O)CCC(=O)O)c(C)n1	.	0.51
CC(C)(CC(=O)NCCc1cccs1)CC1=NS(=O)(=O)c2ccccc2N1	1.5	.

(list continues)
SMILES	HIV TAR-Tat	CDC25B-CDK2 inh
COc1ccc(C2/C(=C(\O)c3ccc(Br)cc3)C(=O)C(=O)N2CCCn2ccnc2)cc1 (configuration not stated)	-1.6	-0.95
CC(=O)OC[C@H]1O[C@@H](n2ccc(=O)[nH]c2=S)C(OC(C)=O)C1OC(C)=O (some centres not stated)	.	-0.04
COc1ccc(Br)cc1C1CC(=O)c2c(ccc3ccccc23)N1 (configuration not stated)	0.51	-0.95
CC(=O)Nc1ccc(S(=O)(=O)Nc2cccc(-c3nc4ccccc4o3)c2)cc1	.	1
CN(C)S(=O)(=O)c1ccc2c(c1)N(CC(=O)Nc1ccc3c(c1)OCO3)CCS2	-0.41	.
O=C(CSCc1nc2cccnc2n1C1CCCCC1)NCCc1cccs1	2.2	.
O=C(O)c1ccccc1C(=O)Nc1c(-c2ccccc2)nc2ccccn12	1.5	-0.2
CN(CCCNC(=O)C1CCCN(S(=O)(=O)c2ccc3c(ccn3C)c2)C1)C1CCCCC1 (configuration not stated)	1.8	.
CSc1ncc(S(=O)(=O)Cc2cccs2)c(N)n1	.	-1.3
Cc1ccc2nc(C3=C(O)CN(c4ccc(C)c(C)c4)C3=N)[nH]c2c1	2.3	1.1
CCOC(=O)c1cc2c(c(CSc3nc(C)nc4c3CCC4)c1)OCOC2	1.6	-1.4
COc1ccccc1OCCn1c(=O)n(C)c2ccccc21	1.5	-0.88
O=C(c1[nH]nc2c1CCc1ccccc1-2)N1CCN(C2CCCCC2)CC1	0.33	.
C(=C\c1ccccc1)/CSc1nnc(-c2ccncc2)n1-c1ccccc1	.	-0.87
CCOC(=O)NC(=O)/C(C#N)=C/Nc1sc(C)c(C)c1C(=O)OCC	.	-1.3
CCOC(=O)c1cnn2c1nc(N)c1ccccc12	.	1.5
O=C(O)Cc1ccc2c3c(cccc13)CC2	0.12	-1.7
CN(CCNC(=O)c1nn(C)c2c1CS(=O)(=O)c1ccccc1-2)Cc1ccccc1	0	-0.44
Cc1cc(CNC(=O)Nc2ccc(Br)cc2)c(C)n1-c1ccccc1	-2	.
Cc1cc(NC(=O)c2onc(C)c2Cl)n(-c2ccccc2)n1	-0.93	-2.5
Cc1cccc2c(=O)n(CCNCc3ccccc3)c(C)nc12	.	-0.8
COc1c([N+](=O)[O-])cc(S(=O)(=O)N2CCOCC2)cc1[N+](=O)[O-]	.	-0.72
CCOC(=O)c1sc(C)c2c(=O)n(Cc3ccccc3)cnc12	.	-1.4
CN(CCNC(=O)c1nn(C)c2c1CS(=O)(=O)c1ccccc1-2)C1CCCCC1	1.3	-1.7
Cc1cc(N/N=C/c2ccc([N+](=O)[O-])s2)nc2c(N)n[nH]c12	.	-1.6
SMILES	HIV TAR-Tat	CDC25B-CDK2 inh
O=C(Nc1ccc(F)cc1F)c1cnccn1	0.69	-2
COC(=O)c1c(C)oc2cc(Br)c(OC)cc12	1.4	-1.8
O=c1ccc(-c2ccc(Cl)c(S(=O)(=O)N3CCc4ccccc4C3)c2)n[nH]1	0.87	.
O=C(NCCN1CCOCC1)c1ccc(N2CCc3ccccc32)s1	2.5	.
COc1ccc(S(=O)(=O)NC(c2ccccc2)c2nnc(-c3ccccc3)o2)cc1 (configuration not stated)	1.8	.
COc1ccc(OC)c(N2C(=O)c3cccnc3C2Nc2cc(C)cc(C)c2)c1 (configuration not stated)	1.3	.
CCOC(=O)c1cccc(-n2c(C)cc(/C=C3/SC(=O)NC3=O)c2C)c1	.	-0.61
Cc1[nH]nc(-c2cccs2)c1C(=O)N/N=C/c1ccc([N+](=O)[O-])s1	.	-0.89
CSc1ccc(Oc2cccc(F)c2C#N)cc1	.	-0.27
CCCN1C(=O)C(O)(CC(=O)c2ccccc2O)c2ccccc21 (configuration not stated)	-0.25	-2.2
CCC(C(=O)OC)n1cnc2c(nnn2-c2cccc(Cl)c2)c1=O (configuration not stated)	-0.09	-0.58
CCOc1ccc(-c2nc3c(c(Cc4ccccc4)nn3-c3ccccc3)c3cc(OC)c(OC)cc23)cc1OCC	.	-2.7
CCN(Cc1ccc(F)cc1)Cc1cc(=O)c2cc(C)ccc2[nH]1	0.12	.
CN(Cc1ccccc1)S(=O)(=O)C1CCS(=O)(=O)C1 (configuration not stated)	-0.31	-1.4
CC(C)(C)c1ccc(/C(N)=N/OC(=O)Cc2cccs2)cc1	.	-0.09
CCCC(=O)Nc1nc2nc(C)cc(=O)n2[nH]1	2.2	-1.3
O=C1CSc2ccc(S(=O)(=O)N3CCc4ccccc4C3)cc2N1	2.5	.
O=c1c(S(=O)(=O)c2ccccc2)c[nH]c2ccc(F)cc12	2.6	-0.96
COCCN1C(=O)CC(C(=O)OC)=C1C	0	-1.1
COc1ccc(Cl)cc1Nc1nc(-c2cccnc2)nc2ccccc12	1.3	-11
O=C(NCCC1=CCCCC1)C1CCCN(c2ccc(=O)n(-c3ccc(F)cc3)n2)C1 (configuration not stated)	-0.77	.
Cc1[nH]c2ccccc2c1C(=O)CSc1nnc(Cc2cccs2)n1C	0.65	-1.1
Nc1c2c(nn1-c1ccccc1)Oc1ccc(Cl)cc1C2	0.86	-1.7
Cc1ccc(C)n1-c1ccc(C(=O)NN)cc1	.	1.6
O=c1cc(CSCc2ccco2)nc2sccn12	0.3	0.27

Gathered by group: the entries above with a tert-butyl group
SMILES	HIV TAR-Tat	CDC25B-CDK2 inh
Cc1c(NC(=O)C(C)(C)C)c(-n2cnnc2)nn1C	-0.85	-2.2
CC(C)(C)c1ccc(/C(N)=N/OC(=O)Cc2cccs2)cc1	.	-0.09

(next part)
SMILES	HIV TAR-Tat	CDC25B-CDK2 inh
CCCN1CCN(c2cc3c(cc2F)c(=O)c(S(=O)(=O)c2cc(C)cc(C)c2)cn3C)CC1	-1.3	.
CCCCc1cc(C)c2[nH]c(=O)cc(C)c2c1	.	-2.3
O=C(Nc1cc2ccccc2s1)NC1CCN(Cc2ccccc2)CC1	.	-0.54
CCCCCCNC(=O)CCc1c(C)nc2ncnn2c1C	-0.77	-0.78
O=C(Oc1cccnc1)c1c(F)cccc1F	.	-0.37
O=C(O)COc1ccc2occ(C(=O)c3ccccc3)c2c1	.	-2.8
CCOC(=O)N1CCN(C(=O)CCS(=O)(=O)c2ccc3c(c2)NC(=O)C(C)S3)CC1 (configuration not stated)	2.1	.
Cc1ccc(-n2nc3c([n+]2[O-])CCc2c-3no[n+]2[O-])cc1	.	-0.18
CC1=C(c2ccc(C)c(C)c2)S(=O)(=O)N=C1N1CCC(N2CCCCC2)CC1	1.1	-0.07
Cc1ccc(S(=O)(=O)Nc2cccc3ncccc23)cc1	.	-1.5
COC(=O)Cn1c(=O)n(-c2ccc(Cl)cc2)c(=O)c2c3c(sc21)COC(C)(C)C3	-1.1	-1.8
Clc1ccccc1Cn1c(C2CCCO2)nc2ccccc21 (configuration not stated)	2.7	-1.2
Clc1ccc(-c2noc3ncnc(NCc4ccco4)c23)cc1	3.4	-0.97
CCn1c(C(O)c2cc(OC)ccc2OC)nc2ccccc21 (configuration not stated)	0.58	0.14
CC1=CCC2C(=O)N(c3ccc(S(N)(=O)=O)cc3)C(=O)C2C1 (configuration not stated)	0.47	-0.1
CCN(CCNc1ncnc2onc(-c3ccc(Cl)cc3)c12)Cc1ccccc1	1.7	.
Cc1nc2ncnn2c(NCc2cccs2)c1C	2.5	.
Cc1nnsc1C(=O)NCCSCc1ccc(Cl)cc1Cl	.	-1.1
Cc1cc2c(cc1S(=O)(=O)NCc1ccc3c(c1)OCO3)n(C)c(=O)c(=O)n2C	2.1	.
CC(C)CC(=O)N1c2ccccc2NC2=C(C(=O)CC(C)(C)C2)C1c1cccnc1 (configuration not stated)	0.88	0.52
N#CC(c1cc2ccccc2cn1)c1ccc2c(c1[N+](=O)[O-])C(=O)c1ccccc1C2=O (configuration not stated)	.	0.26
CCn1cnc2cc(NCc3ccco3)ccc21	0.58	16*
O=S(=O)(NCC1COc2ccccc2O1)c1cccc(C(F)(F)F)c1 (configuration not stated)	.	-0.25
Cc1cc2nc(CSc3nc4ccc(NC(=O)c5cccs5)cc4s3)cc(=O)n2o1	0.07	.
CCc1cc2c3c([nH]c2cc1S(=O)(=O)Nc1ccccc1F)CC(C)(C)CC3=O	2.2	.

Structural class: the compounds so far containing a COOH group
SMILES	HIV TAR-Tat	CDC25B-CDK2 inh
Cc1cnc(NC(=O)CCC(=O)O)c(C)n1	.	0.51
O=C(O)c1ccccc1C(=O)Nc1c(-c2ccccc2)nc2ccccn12	1.5	-0.2
O=C(O)Cc1ccc2c3c(cccc13)CC2	0.12	-1.7
O=C(O)COc1ccc2occ(C(=O)c3ccccc3)c2c1	.	-2.8

The results go on.
SMILES	HIV TAR-Tat	CDC25B-CDK2 inh
COCCn1c(C)cc(C(=O)CSc2nnc3ccccn23)c1C	.	-0.46
CCN(Cc1cc(=O)n2ccsc2n1)c1ccc(OC)cc1	-0.88	.
CCN1C(=O)Cc2cc(NS(=O)(=O)c3ccc(F)c(C)c3)ccc21	1.2	.
O=C(CSc1nc2ccc(Br)cc2c2nc3ccccc3n12)Nc1nccs1	0.44	-1.8
CC(C)=CCn1c(N2CCCCCC2)nc2c1c(=O)[nH]c(=O)n2C	.	0.05
C=CCOc1ccc(-c2nc3c(c(=O)[nH]2)Cc2ccccc2O3)cc1	-2.1	0.49
CCC(C)NC(=O)CN1C=NS(=O)(=O)c2ccccc21 (configuration not stated)	0.73	.
CCOC(=O)c1c(C)[nH]c(C)c1S(=O)(=O)N1CCC(C(=O)NCCC2=CCCCC2)CC1	1.1	.
O=C1C(=O)N(CCCn2ccnc2)C(c2cccc(F)c2)/C1=C(\O)c1ccc(Br)cc1 (configuration not stated)	-0.4	-0.21
O=C(c1cnc2sc(N3CCOCC3)nn2c1=O)N1CCCCC1	1.4	.
O=C1CCCC2=C1C(c1cccc(O)c1)Nc1ccc(C(=O)c3ccccc3)cc1N2 (configuration not stated)	0.73	-0.96
C=CCS/C(=N\S(=O)(=O)c1ccc(C)cc1)Sc1ccc(Cl)cc1	.	-2.7
CCOc1ccc(C2C(C(=O)c3cc4ccccc4o3)=C(O)C(=O)N2CCN(C)C)cc1OC (configuration not stated)	-0.8	-2
COc1cc(-c2c(C#N)c(OC)[nH]c(=O)c2C#N)cc(OC)c1OC	.	-2.1
COc1ccc(-c2nc3nc[nH]n3c2Nc2ccc(C(C)C)cc2)cc1	.	0.6
N#CC1=C(N)Oc2n[nH]c(-c3ccccc3)c2C1C1CCCCC1 (configuration not stated)	2.3	-0.01
CCOc1ccc(S(=O)(=O)n2nc(C)c(S(=O)(=O)N(C)c3ccccc3)c2C)cc1	0.53	.
O=C1CC(c2ccccc2)CC(=O)N1c1cccc2c1CCCC2	.	-1.4
